TRPML1 inh – qHTS for Inhibitors of the Human Mucolipin Transient Receptor Potential 1 (TRPML1); activity change, negative = inhibition, % (no concentration beside the values); Mucolipin-1 (Homo sapiens), Q9GZU1; 390,000 tested, 0.02% active; TRPML1-inducible cells, Ca2+ dye fluorescence, FDSS; active compounds read low; inhibition of EC80 agonist-evoked calcium signal; in the data active means activity change below about -50%; inconclusive means about -30% to -50%; inactive means above about -30%;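 note: stimulus is agonist 54-4 at its EC80 concentration; % is set by controls: 0 for no effect and ±100 for the full control effect; compound concentration not given in the record; the text of the record puts the active cut at -80%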
Target sequence (Q9GZU1 whole entry, looked up): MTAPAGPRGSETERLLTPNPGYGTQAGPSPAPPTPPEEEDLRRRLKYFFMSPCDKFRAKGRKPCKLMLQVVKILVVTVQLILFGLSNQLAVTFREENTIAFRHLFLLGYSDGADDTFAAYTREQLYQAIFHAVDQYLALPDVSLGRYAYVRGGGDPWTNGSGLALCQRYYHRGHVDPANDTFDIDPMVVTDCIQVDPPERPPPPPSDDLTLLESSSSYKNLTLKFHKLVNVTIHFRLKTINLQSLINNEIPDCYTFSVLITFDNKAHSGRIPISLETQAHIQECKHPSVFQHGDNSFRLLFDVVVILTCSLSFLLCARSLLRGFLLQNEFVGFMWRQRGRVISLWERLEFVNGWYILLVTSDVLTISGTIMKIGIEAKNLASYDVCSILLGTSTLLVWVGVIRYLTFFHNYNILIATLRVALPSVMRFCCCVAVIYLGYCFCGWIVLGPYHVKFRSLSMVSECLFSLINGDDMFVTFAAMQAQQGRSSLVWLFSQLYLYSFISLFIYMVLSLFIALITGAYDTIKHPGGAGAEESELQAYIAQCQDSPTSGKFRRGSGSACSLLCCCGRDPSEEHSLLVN
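Tet-induced TRPML1-DL cells loaded with Ca8 no-wash calcium dye were read kinetically on FDSS. Compound addition was followed by EC80 agonist 54-4 (4 uM final); inhibition was read over 110 s.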
TRPML1 agonist – qHTS for Agonists of the Human Mucolipin Transient Receptor Potential 1 (TRPML1); Mucolipin-1 (Homo sapiens), Q9GZU1; TRPML1-expressing cells, Ca2+ dye fluorescence, FDSS; host cell line not named in the record; reference of the full effect not given here; 410,000 tested, 0.12% active; activation, % (concentration not given with the values); in the data active = activation above about 50%; inconclusive = about 30% to 50%; inactive = below about 30%; note: 0% is about no effect; the text of the record puts the active cut at 80%
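In this qHTS format, compounds were pin-transferred onto Ca8-dye-loaded TRPML1-DL cells induced with Tet overnight, and intracellular Ca2+ fluorescence was recorded kinetically for 110 s after a 10 s baseline. A subsequent 4uM final 54-4 (EC80) addition followed by a second 110 s read served as the antagonist phase.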
Menin-MLL FL inh – qHTS Assay for Inhibitors Targeting the Menin-MLL Interaction in MLL Related Leukemias: Competition With Fluorescein Labeled MLL-derived Peptide. Fluorescence polarization, fluorescein-MLL peptide displacement from menin. FP activity change, % at 61.4 µM. 290,000 tested, under 10 active; inconclusive = falling polarisation curve, or a change in total fluorescence; inactive = total fluorescence flat and polarisation flat or rising; no compound was filed as active; the % refers to the polarisation; negative = inhibition;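 note: % of control where 0% means no effect; inhibitors lower the polarisation; unlabelled MLL peptide was the positive control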
ClpP mod – qHTS Assay for Activators of ClpP | purified B. subtilis ClpP, FRET peptide cleavage, 20 min | AID 651965, 2013 | Potency, µM (highest dose often 57.5 µM), for the others: at the top dose activity change, negative = active | 340,000 tested, 1.9% active; active = well fitted falling curve with a large enough effect; inconclusive = small, poorly fitted or top-dose-only effect; inactive = no such curve, though single readings can be large or run the other way; note: potency is the fitted concentration of half-maximal effect; the source files actives as falling curves though it sought activators and does not explain the sign; nearly all actives have a fitted effect of over 65% in size; many hits overshoot -100%
Target sequence (P80244 whole entry, looked up): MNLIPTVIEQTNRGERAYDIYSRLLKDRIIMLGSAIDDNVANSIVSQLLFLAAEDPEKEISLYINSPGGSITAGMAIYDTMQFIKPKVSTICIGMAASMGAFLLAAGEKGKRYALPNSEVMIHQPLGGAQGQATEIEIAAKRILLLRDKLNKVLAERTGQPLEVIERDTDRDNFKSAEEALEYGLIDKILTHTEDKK
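Purified B. subtilis ClpP, 10 microg/mL final in Tris/HCl pH8 with KCl, BSA, glycerol and Tween-20, cleaved an Abz/nitrotyrosine-quenched decapeptide. Fluorescence (ex 320, em 430) was read at 0 and 20 min at room temperature. Delta was normalized to 5.8 microM ADEP and DMSO/no-enzyme controls.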
gsp antag – qHTS for Antagonists of gsp, the Etiologic Mutation Responsible for Fibrous Dysplasia/McCune-Albright Syndrome: qHTS. gsp-mutant cells, cAMP HTRF, 30 min; control for the full effect not named in the record. Potency, µM (highest dose often 76.9 µM), for the others: at the top dose activity change, negative = inhibition, most hits filed as inhibitors. 340,000 tested, 0.4% active; active = falling curve of any shape with a large fitted effect; inconclusive = falling curve, mostly with a smaller effect; inactive = flat or rising curve; cell line not stated here;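 note: intracellular cAMP measured with PDE inhibitor Ro 20-1724 present during compound exposure; potency is the fitted concentration of half-maximal effect; % is set by controls: 0 for no effect and ±100 for the full control effect; nearly all actives have a fitted effect of over 65% in size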
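Cells in G418 medium, seeded 16-24 h, 37C; buffer exchange to DPBS + 1 mM CaCl2, 0.5 mM MgCl2, 0.05% BSA; cpds in DMSO + […] (300 uM stock), 30 min 37C; HTRF cAMP detection.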
gsp ag – qHTS for Agonist of gsp, the Etiologic Mutation Responsible for Fibrous Dysplasia/McCune-Albright Syndrome: qHTS; gsp mutant cells, cAMP HTRF, 30 min; control for the full effect not named in the record; Potency, µM (series often up to 76.9 µM), for inactives: top-dose activation (cAMP increase), hits mostly activators; 340,000 tested, 0.13% active; AID 624287, 2012; active = well fitted activation curve with a large enough effect; inconclusive = small, poorly fitted or top-dose-only effect, or another doubt; inactive = no such curve, though single readings can be large or run the other way; cell line not stated here;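 note: phosphodiesterase inhibitor Ro 20-1724 added with compounds to block cAMP breakdown; potency is the fitted concentration of half-maximal effect; nearly all actives have a fitted effect of over 60% in size; about a fifth of the inactives were tested at one dose only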
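Cells in DMEM/10% FBS with G418 were pretreated with compounds in DMSO plus […] (300 uM stock) for 30 min at 37C. cAMP was measured by HTRF (cAMP-d2 plus anti-cAMP antibody-K) after 30 min at room temperature.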
* hit, by the source's call; u = inconclusive; x = not tested or not shown; & = joins results of further samples; [ ] = dose if it differs, or a comment. An unsorted share of the library; about 2.1% have a hit in one of these screens.

SMILES	TRPML1 inh	TRPML1 agonist	Menin-MLL FL inh	ClpP mod	gsp antag	gsp ag
CCN1CCN(C(=O)CCNC(=O)Cn2cnc3ccccc3c2=O)CC1	21	-0.4	-4.7	x	9%	2%[15.4 µM]
Cc1ccc(OCC(=O)N2CCc3ccccc3C2)c([N+](=O)[O-])n1	-4	-0.6	2.0	-3.3%	1%	-11%
O=C(Nc1nnc(-c2ccccc2F)s1)c1ccccc1F	14	0.1	0.8	x	-20%	u
CC(=O)NC(CC(=O)O)c1ccccc1 (centres undefined)	-8	-0.6	1.7	-1.1%	12%	u
Cc1nn(CCC(N)=O)c2nc(-c3cccs3)cc(C(F)(F)F)c12	-4	-0.1	-29	-5.2%	-12%	-12%[15.4 µM]
CCCCCn1c(=O)c2ccccc2n2c(CCl)nnc12	3	0.3	3.9	x	x	-2%[15.4 µM]
CCOc1ccc(S(=O)(=O)N/N=C2/CCCC(=O)C2)cc1	u	-0.3	2.1	-0.6%	-1%	16%
CCOC(=O)NC(=O)CN1C(=O)NC2(CCc3ccccc32)C1=O (centres undefined)	3	-0.1	4.2	x	18%	-10%[15.4 µM]
Cc1cc(C)cc(N(CCC#N)C(=O)CSc2ncnc3sccc23)c1	-3	0.8	x	-1.1%	7%	-22%
CCOC(=O)C1(Cc2cccc(OC)c2)CCCN(C(=O)CCN2CCCO2)C1 (centres undefined)	3	-0.5	x	-0.2%	-3%	-25%
O=C(Nc1nccs1)c1cc2c(s1)-c1ccccc1OC2	9	0.0	2.5	5.5%	-4%	-36%
Cc1nc(-c2ccccc2)sc1-c1n[nH]c(=S)n1C	19	1.8	-1.2	17%	-7%	28%
O=C(CCCCCN1C(=O)c2cccc3cccc(c23)C1=O)NCc1ccco1	6	-0.4	-0.7	-2.6%	0%	-13%[15.4 µM]
CCn1c(SCC(=O)NCC(=O)Nc2ccc(F)cc2)nnc1-c1ccncc1	-1	0.2	2.6	-0.6%	18%	-18%
CCCCNS(=O)(=O)c1ccc(OC)cc1	-6	-1.1	-1.3	-0.7%	-5%	5%
O=C1CC(c2ccccc2)CN1C(=O)c1cccc([N+](=O)[O-])c1 (centres undefined)	7	-0.5	4.7	-5.3%	13%	-4%
CCC[C@@H](OS(N)(=O)=O)[C@@H](Cc1ccccc1)C(=O)OCC	2	2.0	-1.0	-0.2%	-3%	4%
COc1cc(C2NC(=O)NC(c3ccccc3)=C2C(C)=O)c(Cl)cc1OCC(=O)O (centres undefined)	-11	-0.7	0.1	x	9%	-7%[15.4 µM]
CC(=O)N1CCc2c(sc(NC(=O)c3cccc(N4C(=O)CCC4=O)c3)c2C(N)=O)C1	3	-0.1	u	-7.2%	-8%	u
CCc1nc2ccccc2c(C(=O)OCCN2C(=O)c3ccccc3C2=O)c1C	-14	2.7	-8.6	-2.6%	-3%	-29%
CN1c2ccccc2C(=O)N2CCc3c([nH]c4ccccc34)C21 (centres undefined)	-19	3.2	-6.6	x	x	x
COc1ccc(OCC(=O)NNC(=O)C(=O)Nc2ccc(C)cc2)cc1	14	-0.1	-2.8	3.6%	2%	-28%
CCOc1ccccc1NC(=O)N1CCC(NC(=O)C2CCCCC2)CC1	-4	-0.3	-2.2	x	7%	17%
O=C(NCc1cccn1Cc1ccccc1)Nc1ccc(Br)cc1F	-17	3.5	x	-1.6%	x	x
Cc1cc(C)c2c(=O)n(CC(=O)NCCCN3CCOCC3)sc2n1	8	-0.5	3.9	-17%	2%	u
The list continues:
SMILES	TRPML1 inh	TRPML1 agonist	Menin-MLL FL inh	ClpP mod	gsp antag	gsp ag
CC(C)CC(CO)N1CCN(C(=O)c2cccc(C(F)(F)F)c2)CCC1=O (centres undefined)	8	-0.3	-0.8	-0.1%	13%	x
CCOC(=O)C1(CCCc2ccccc2)CCN(C(=O)CCc2cnn(C)c2)CC1	17	-0.3	-3.7	x	-5%	-2%[15.4 µM]
CC(=O)N1CCC(C(=O)Nc2ccc(S(=O)(=O)N3CCCCC3)cc2)CC1	5	0.8	x	-15%	7%	1%[15.4 µM]
CCOC(=O)Cn1c(=O)n(C2CCCCC2)c2nc(-c3cccc(C)c3)nc(C(N)=O)c21	-10	1.5	x	-28%	x	x
CN1CCN(CCCN2c3ccccc3Sc3ccc(Cl)cc32)CC1	11&8	3.4&1.0	-4.0	-4.8%&-0.4%	7%&1%	x
Cc1ccc(S(=O)(=O)NC(=O)c2ccc(Br)o2)c(C)c1	0	-0.9	-3.0[94.6 µM]	-3.0%	-2%	x
Cc1cc(C(F)(F)F)nn1Cc1n[nH]c(=S)n1-c1cccc(Cl)c1	-2	-0.7	4.4	1.7%	-10%	-28%
Cc1nnc(OC(C)C)c2nn(-c3ccccc3F)c(C)c12	-7	-0.5	18	-10%	-7%	14%
Cc1ccc(NCc2nnc(SCC(N)=O)n2CC2CCCO2)c(C)c1 (centres undefined)	9	0.5	2.1	-2.9%	1%	-2%
Cc1ccc(NC(=S)N2CCN(c3nccc(C(F)(F)F)n3)CC2)c(C)c1	22	-0.8	-2.3	x	10%	22%
CCn1cc(C(=O)NCCc2ccccc2)c(=O)c2cc(S(=O)(=O)N(C)C)ccc21	1	0.0	-1.2	x	-11%	22%[15.4 µM]
CCOc1ccc(NC(=O)CN(C)C(=O)C2COc3ccccc3O2)cc1OCC (centres undefined)	-9	0.4	x	x	-10%	2%
CCCCNC(=O)CC1N=C2c3ccccc3N=C(SCC(=O)Nc3ccc(OC)cc3)N2C1=O (centres undefined)	-3	0.0	0.3	-1.6%	-14%	-37%
COCCN1Cc2cccc(C(=O)Nc3ccc(C(=O)OC)cc3)c2C1=O	-2	-0.2	x	-1.3%	x	x
CN(C)c1cc(Cl)c2nonc2c1N	12	2.5	4.4	x	4%	-5%
CCC(=O)NC(=S)Nc1ccccc1C(=O)NC1CCCCC1	-1	2.2	x	1.5%	15%	12%
O=S(=O)(NC1c2cccc3cccc(c23)C1N1CCNCC1)c1ccc(Cl)cc1 (centres undefined)	6	0.2	-1.0	x	9%	-9%[15.4 µM]
O=C(CC(c1ccco1)C1CCCCC1=O)c1ccccc1 (centres undefined)	-1	1.1	2.7	-0.9%	-1%	-18%
CN(CC(=O)N1CCN(Cc2ccccc2)CC1)S(=O)(=O)c1ccc(Br)cc1	-6	-0.5	0.9	2.0%	-10%	-5%
CCc1ccccc1NC(=O)c1ccc2c(O)c(S(=O)(=O)c3ccccc3)c(=O)[nH]c2c1	-2	-0.4	x	-12%	x	x
COC(=O)c1cccc(NC(=O)CSc2nc(O)c(-c3ccccc3)c(=O)[nH]2)c1	-12	1.6	-0.4	-2.7%	-12%	-19%
CC(=O)c1c(C)[nH]c(C(=O)OCC(=O)N2CCCC2=O)c1C	-18	-0.6	x	0.6%	3%	-15%
O=C(CCn1cccc1)Nc1ccc(OC(F)(F)F)cc1	-11	-0.2	2.1	-0.2%	13%	18%
O=C(COC(=O)C1Cc2ccccc2CN1C(=O)c1ccccc1Cl)Nc1ccc(N2CCOCC2)cc1 (centres undefined)	-10	-0.6	7.6	-17%	-23%	29%
CCOc1cc2c(C)cc(=O)oc2cc1Cl	0	0.4	1.2	-11%	4%	-41%[inhibitor]
Following part:
SMILES	TRPML1 inh	TRPML1 agonist	Menin-MLL FL inh	ClpP mod	gsp antag	gsp ag
O=C(CCCC(=O)N(CC(=O)NC1CCCC1)Cc1ccccc1)Nc1ccccn1	10	-0.9	3.5	1.7%	-3%	u
Oc1ccc2ccccc2c1C=Nc1ccccc1	11	-0.6	9.5	x	9%	-22%[15.4 µM]
CCN(CC(=O)Nc1cc(Cl)ccc1C)C(=O)C1CCN(c2ncnc3sc(C)c(C)c23)CC1	0	-0.4	x	-8.8%	x	23%
Cc1oc2c(C)c3oc(=O)c(CCC(=O)N4CCC(C(=O)NCCC(=O)O)(c5ccccc5)CC4)c(C)c3cc2c1C	14	-0.9	-2.0	-12%	-3%	18%
C=CCNC(=S)N1CCN(CCN=CC2=C(O)CC(c3ccc(Cl)cc3)CC2=O)CC1 (centres undefined)	-5	0.6	-0.3	x	-1%	6%[15.4 µM]
COc1ccccc1N1CCN(C(=O)/C=C/c2ccc3c(c2)OCO3)CC1	6	0.4	0.0	-18%	-21%	-3%
COc1ccc2[nH]cc(CCNS(=O)(=O)c3ccc(F)cc3)c2c1	21	0.9	1.2	x	0%	-8%[15.4 µM]
CCN1CCN(c2oc(-c3ccccc3)nc2S(=O)(=O)c2ccc(C)cc2)CC1	29	2.3	x	0.5%	6%	-13%[15.4 µM]
Cc1cc(C)n(-c2nc(SCC(=O)Nc3nccs3)c3c4c(sc3n2)COC(C)(C)C4)n1	-2	1.5	-2.6	-4.4%	-7%	-20%
COc1ccc(-c2nn(-c3ccccc3)cc2C(=O)NC(=S)NNC(=O)c2ccncc2)cc1	4	0.1	-0.6	3.7%	-23%	-6%
CC(C)=NN1C(=O)c2ccccc2NC1(C)C	-5	-0.4	5.4	-1.4%	7%	-19%[15.4 µM]
C=CCNC(=S)Nc1ccccc1-c1nnc2n1CCCCC2	-13	-0.3	-1.5	x	-13%	6%[15.4 µM]
COc1ccc(NC(=O)CCn2c(=O)c3cccn3c3cccnc32)cc1Cl	-4	-0.3	x	26%	x	x
O=C(CSc1ncn[nH]1)CSc1ncn[nH]1	-6	0.7	-1.9	x	0%	2%[15.4 µM]
COc1ccc2c(C)c(CC(=O)NCCc3ccc(Cl)cc3)c(=O)oc2c1C	-9	-1.3	x	u	x	x
COc1cccc(CN(C)C(=O)c2ccc(N3CCCC3)c([N+](=O)[O-])c2)c1	-6	-0.4	x	1.7%	3%	-17%
COc1ccc(-c2nnc3sc(CCN4C(=O)c5ccccc5C4=O)nn23)cc1	-13	1.4	2.9	0.7%	7%	2%

Two compounds from above, limited to TRPML1 agonist, Menin-MLL FL inh and gsp ag.
compound	TRPML1 agonist	Menin-MLL FL inh	gsp ag
Cc1cc(C)cc(N(CCC#N)C(=O)CSc2ncnc3sccc23)c1	0.8	x	-22%
C=CCNC(=S)N1CCN(CCN=CC2=C(O)CC(c3ccc(Cl)cc3)CC2=O)CC1 (centres undefined)	0.6	-0.3	6%[15.4 µM]
